# Six1-Eya2 blk – Six1/Eya2 interaction inhibition | AlphaScreen GST-Six1/His-Eya2 binding, biochemical; stronger effect = lower value; control for the full effect not named in the record | AID 651725 | activity change, % (no concentration beside the values) | 0.56% of 360,000 active | Q15475+O00167; in the data active = activity change below about -65%; inconclusive = about -30% to -65%; inactive = above about -30%; also: % is scaled to controls: 0 for no effect and ±100 for the full control effect; compound concentration not given in the record
#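 Compounds are tested against tagged Six1 and Eya2 proteins bridged by glutathione donor and nickel acceptor beads; after a one-hour incubation at 37 °C without light, AlphaScreen emission is recorded.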
# gsp ag – agonists of gsp mutant (McCune-Albright syndrome); Potency, µM (highest dose often 76.9 µM), for inactives: at the highest dose activation (cAMP increase), actives largely listed as activators; gsp mutant cells, cAMP HTRF, 30 min; control for the full effect not named in the record; 0.13% of 340,000 active; active = well fitted activation curve with a large enough effect; inconclusive = small, poorly fitted or top-dose-only effect, or another doubt; inactive = no such curve, though single readings can be large or run the other way; cell line not stated here;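 also: phosphodiesterase inhibitor Ro 20-1724 added with compounds to block cAMP breakdown; potency is read from the fitted curve at half-maximal effect; nearly all actives have a fitted effect of over 60% in size; about a fifth of the inactives were tested at one dose only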
#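 Cells stably selected in G418 were plated at 2000/well, grown 16-24 hr, then given compounds in DMSO with the PDE inhibitor […] (300 uM solution added) for 30 min at 37C; cAMP was read by HTRF.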
# CtBP-E1A inh – blocks the CtBP interaction with E1A. AlphaScreen GST-E1A/His-CtBP binding, 1536-well; stronger effect = lower value; control for the full effect not named in the record. activity change, % (test concentration not listed). 0.49% of 340,000 active; in the data active means activity change below about -65%; inconclusive means about -30% to -65%; inactive means above about -30%; also: % is scaled to controls: 0 for no effect and ±100 for the full control effect; compound concentration not given in the record
#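 AlphaScreen with 125 nM GST-E1A and 125 nM His-CtBP (5X stocks) in Tris pH 8.0, 300 mM NaCl, BSA, Tween 20, TCEP. Compounds preincubated 2 h at 37 deg C, then glutathione donor/nickel acceptor beads added for 1 h at 37 deg C in dark.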
# gsp antag – antagonists of gsp mutant (McCune-Albright syndrome); gsp-mutant cells, cAMP HTRF, 30 min; control for the full effect not named in the record; Potency, µM (highest dose often 76.9 µM), for inactives: top-dose activity change, negative = inhibition, usual class: inhibitors; 0.4% of 340,000 active; AID 624288; active = falling curve of any shape with a large fitted effect; inconclusive = falling curve, mostly with a smaller effect; inactive = flat or rising curve; cell line not stated here;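 also: intracellular cAMP measured with PDE inhibitor Ro 20-1724 present during compound exposure; potency is read from the fitted curve at half-maximal effect; % is scaled to controls: 0 for no effect and ±100 for the full control effect; nearly all actives have a fitted effect of over 65% in size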
#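 HTRF cAMP read-out (cAMP-d2 plus anti-cAMP antibody-K in lysis buffer, 30 min RT). Before lysis, cells are exposed to compounds with […] for 30 min at 37C in DPBS containing Ca/Mg, BSA and Tween 20.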
# D2 ag – human D2 receptor agonism in beta-arrestin assay. P14416. activation, % (test concentration not listed). DiscoveRx PathHunter D2 beta-arrestin, luminescence, 90 min; 100% = 57 uM dopamine signal. 0.084% of 360,000 active; in the data active = activation above about 40%; inconclusive = about 15% to 40%; inactive = below about 15%; also: compound concentration not given in the record; the text of the record calls up to 30% inactive
# Target sequence (P14416 whole entry, looked up): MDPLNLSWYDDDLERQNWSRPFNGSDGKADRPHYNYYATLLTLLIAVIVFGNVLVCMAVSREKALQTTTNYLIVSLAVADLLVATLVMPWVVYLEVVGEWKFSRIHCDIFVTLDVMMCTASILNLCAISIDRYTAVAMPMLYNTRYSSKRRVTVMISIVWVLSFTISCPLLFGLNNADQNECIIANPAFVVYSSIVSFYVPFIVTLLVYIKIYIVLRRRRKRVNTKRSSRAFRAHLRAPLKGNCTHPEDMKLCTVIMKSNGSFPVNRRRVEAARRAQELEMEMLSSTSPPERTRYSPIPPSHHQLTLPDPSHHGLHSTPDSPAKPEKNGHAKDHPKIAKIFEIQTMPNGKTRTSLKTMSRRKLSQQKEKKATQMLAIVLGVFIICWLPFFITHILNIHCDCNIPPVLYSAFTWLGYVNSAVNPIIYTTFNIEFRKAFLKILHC
#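 Agonist mode: compounds alone added to overnight-plated D2 PathHunter cells for 90 min at 37 C, with 57 uM final dopamine (EC100) defining full response. Beta-arrestin recruitment detected by chemiluminescent reagent, read after 1 h at ambient temperature.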
# D2 potentiator – positive allosteric modulators of human D2 dopamine receptor; P14416; DiscoveRx D2 beta-arrestin cells, luminescence, 90 min; 100% = 57 uM dopamine signal; potentiation, % (test concentration not listed); 0.23% of 360,000 active; active = potentiation of 50% or more; inconclusive = 30% to 50%; inactive = 30% or less;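 also: compound concentration not given in the record; tested on top of an EC20 dose of dopamine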
#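 PathHunter beta-arrestin assay in DiscoveRx D2 cells. Compounds were added with an EC20 of dopamine (50 nM final) for 90 min at 37 deg C. Luminescence was read 1 h after detection reagent, with 57 uM dopamine as the EC100 control.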
# Active calls of the source: *; ? = inconclusive; nt = no result given; & = joins results of further samples; [ ] = another dose, or the depositor's remark.
D2 ag	D2 potentiator	gsp ag	CtBP-E1A inh	gsp antag	Six1-Eya2 blk	SMILES
-4.0	-12	?	nt	-19%	-17	Cc1cc(SCC(=O)NC(=O)c2cccn2C)nc2ccccc12
-1.1	-4	3%	0	8%	6	O=C(O)C(CC1CCCCC1)N1CCS(=O)(=O)CC1 (stereo not drawn)
5.3	-11	23%	nt	-1%	2	O=C(CSc1ccccc1)Nc1cc(S(=O)(=O)N2CCOCC2)ccc1N1CCOCC1
-3.1	-2	7%	nt	9%	3	CSCCC(NC(=O)c1ccco1)C(=O)NCC1CCCO1 (stereo not drawn)
1.5	-2	nt	-19	nt	4	CC1(C(=O)NS(=O)(=O)c2ccccc2Cl)CCN1C(=O)Cc1cccc2ccccc12 (stereo not drawn)
2.6	9	17%[15.4 µM]	12	nt	-2	COCCNC(=O)NC(=O)COC(=O)c1cccn1C
1.3	3	-10%[15.4 µM]	-2	-1%	5	COC(=O)C(C)(C(=O)OC)c1ccc(C(F)(F)F)cc1[N+](=O)[O-]
-2.4	14	-35%[inhibitor]	-3	-12%	-1	CC1CCN(C(=O)COC(=O)c2ccc(F)c(S(=O)(=O)N3CCOCC3)c2)CC1
0.2	4	5%	-2	3%	0	Cc1ccc(N(C(=O)c2csnn2)C(C(=O)NC(C)(C)C)c2ccncc2)cc1 (stereo not drawn)
-1.7	-19	nt	2	nt	1	CC(C)Oc1cc(F)ccc1-c1cc(C(=O)NCc2ccccc2)[nH]n1
-4.9	-24	nt	-1	nt	-2	CC(C)Nc1nc(Nc2ccccc2Cl)c2sccc2n1
-3.5	-27	16%	-2	10%	-1	Cc1ccc(C(OCCN(C)C)c2cccc(C(F)(F)F)c2)cc1 (stereo not drawn)
-2.7	-12	16%	-1	-1%	8	CCCc1nnc(SCC(=O)N2CCCCC2C)n1CC (stereo not drawn)
-5.7	-16	nt	2	-15%	-4	CC(=O)Nc1ccc(C(=O)CCl)cc1
-3.4	-30	?	8	-22%	-2	Cc1cc2cc(CN(Cc3cccs3)Cc3nnnn3CC3CCCO3)c(=O)[nH]c2cc1C (stereo not drawn)
-6.6	-12	-22%	-4	6%	-3	NNC(=S)NC1CC2CC1C1C=CCC21 (stereo not drawn)
-1.1	-3	2%	-12	-22%	-11	Cc1ncsc1C(=O)Nc1nc2c(s1)CC(C)CC2 (stereo not drawn)
-5.8	-12	4%[15.4 µM]	-1	-4%	-12	O=C(N/N=C/c1c[nH]c2ccccc12)c1sc2ccccc2c1Cl
1.7	0	-5%[15.4 µM]	0	-3%	-1	CSc1ccc(/C=N/NC(=O)CNc2cccc3ccccc23)cc1
0.4	-25	2%	-11	-2%	-1	COc1ccc(CNS(=O)(=O)c2cc(-c3cc(C)no3)ccc2C)cc1OC
0.8	-6	-7%	13	-2%	8	O=C(CSc1cccc[n+]1[O-])Nc1ccc(Br)cc1Br
3.0	-3	29%	4	-9%	-4	CN(C)C(=O)CCC(=O)N1CCCC(C(=O)c2ccc3c4c(cccc24)CC3)C1 (stereo not drawn)
3.8	-3	-2%	nt	-3%	11	COc1ccc(-c2c(-c3ccc(OC)cc3O)nc(C)nc2C(F)(F)F)cc1
0.5	-7	?	-13	1%	-24	O=c1c2cc(N3CCOCC3)ccc2[nH]c(=S)n1Cc1ccco1
1.1	-3	nt	-23	nt	-8	Cc1nc2ccc(C(=O)Nc3ccc4c(c3)OCC(=O)N4)cn2c1N(C)C(=O)CCc1ccccc1
-2.3	-8	1%	1	-16%	5	COc1ccc(S(=O)(=O)N(Cc2ccccc2)Cc2nc(-c3ccccc3)no2)cc1
-0.2	-6	16%	-11	9%	-8	Cn1c(SCC(=O)NN2C(=O)NC(C)(c3ccccc3)C2=O)nnc1-c1ccncc1 (stereo not drawn)
-14	-22	15%	-5	-3%	11	O=[N+]([O-])c1cccc(/C=N/NS(=O)(=O)c2ccccc2)c1
-1.6	-8	?	-15	4%	-6	COC(=O)c1cc(NS(=O)(=O)c2ccc3c(c2)c(=O)n(C)c(=O)n3C)cc(C(=O)OC)c1
-4.7	-5	15%	-1	8%	8	Cc1noc(C)c1S(=O)(=O)N(C)Cc1ccccc1

# A few values from the entries so far:
# `COC(=O)C(C)(C(=O)OC)c1ccc(C(F)(F)F)cc1[N+](=O)[O-]` in Six1-Eya2 blk shows 5
# `CC(C)Nc1nc(Nc2ccccc2Cl)c2sccc2n1` in Six1-Eya2 blk shows -2

# Other records follow.
D2 ag	D2 potentiator	gsp ag	CtBP-E1A inh	gsp antag	Six1-Eya2 blk	SMILES
-3.3	1	-11%	13	23%	4	O=S(=O)(c1ccc(Cl)nc1)N1CCC(Cc2ccccc2)CC1
2.7	5	34%	-1	-25%	5	Cc1ccc(NC(=O)C(=O)NCC2CCCN2S(=O)(=O)c2cccs2)cc1C (stereo not drawn)
1.2	0	7%[15.4 µM]	-3	-3%	-3	CCOC(=O)c1cc(C)nc(S(C)(=O)=O)c1C#N
0.2	-2	nt	-17	4%	-20	C[C@H](CO)N1C[C@H](C)[C@@H](CN(C)S(=O)(=O)c2cccs2)Oc2ccc(NC(=O)Nc3ccc4c(c3)OCO4)cc2C1=O
-3.6	-3	-16%[15.4 µM]	-4	14%	8	CC(C)CN(C(=O)C1CCCO1)C1CCS(=O)(=O)C1 (stereo not drawn)
-2.6	-5	nt	-2	-17%	0	O=S1(=O)c2ccc(Br)cc2N2CCC[C@@H]2CN1Cc1ccc(Cl)cc1
1.6	-8	-1%[15.4 µM]	2	-17%	1	COc1ccc(NS(=O)(=O)c2cc(NC(=O)c3cccc(OCc4c(C)noc4C)c3)ccc2OC)cc1
-2.7	-2	nt	1	9%	-5	COc1cc(OC)c2c(-c3cccc(-c4ccc(OC)c(F)c4)c3)cc(=O)oc2c1
-1.0	-7	0%	1	5%	2	O=C(O)c1ccccc1OCCOCCOc1ccccc1C(=O)O
-2.1	-11	18µM*	10	-4%	8	Cc1ccc(Sc2c(C=O)c3ccccc3n2C)cc1
-3.8	-10	-5%	-6	-1%	-8	Cc1ccccc1/C=N/NC(=O)CSc1nc2ccccc2o1
-1.7	-9	-6%	3	8%	-2	Cc1ccc(S(=O)(=O)N2CCOCC2)cc1C(=O)NCc1cn2ccsc2n1
-0.4	13	7%	5	-9%	7	O=C(Oc1ccccc1)c1ccc(NC(=O)c2ccco2)cc1
-3.0	-9	?	-2	10%	3	Cc1nn(-c2ccccc2)cc1/C=N/O
-1.7	-8	-11%[15.4 µM]	0	?	-1	O=C(c1cc(COc2ccc(F)cc2Cl)on1)N1CCCC(OCc2cccnc2)C1 (stereo not drawn)
-1.6	-6	-61%[inhibitor]	3	nt	4	CCOC(=O)c1cc(=O)nc(N)s1
10	1	-4%	-1	7%	-1	COC(=O)c1ccc(COC(=O)CNC(=O)c2cccc(OC)c2)o1
-3.8	-1	nt	2	nt	2	COc1ccc(S(=O)(=O)N2CCCCC2c2cc(C(=O)Nc3ccccc3)no2)cc1 (stereo not drawn)
-6.5	0	17%	1	nt	1	C[C@H]1CN([C@@H](C)CO)S(=O)(=O)c2ccc(C#Cc3ccccn3)cc2O[C@H]1CN(C)Cc1ccc(F)cc1
0.1	-6	-4%	-1	11%	4	CCc1nnc(NC(=O)CCC(=O)NCc2ccccc2OC)s1
-0.4	-7	?	nt	1%	1	CC(C)[C@@H](CO)NC(=O)c1ccc2c3n(nc2c1)-c1ccc(Cl)cc1CO3
1.5	-9	18%	-9	0%	8	COc1ccc(S(=O)(=O)N2CCCCCC2)cc1NS(=O)(=O)c1cc(C(=O)O)cc(C)c1C
-0.2	-1	12%[15.4 µM]	-14	-5%	-9	O=C(O)Cc1nc(-c2cccnc2)sc1-c1ccc(Br)cc1
-0.9	0	-11%	9	2%	10	CC(C)CN(C(=O)CCNC(=O)c1ccc([N+](=O)[O-])cc1)C1CCS(=O)(=O)C1 (stereo not drawn)
-5.6	-41	-17%	-1	21%	-2	COc1ccc2cc3cc(C(=O)Nc4ccccc4N4CCN(C)CC4)oc3nc2c1
-0.6	-17	-2%	15	-1%	-6	CSc1nc(S(C)(=O)=O)nc2[nH]c(=O)[nH]c12
-0.9	-6	13%	2	4%	3	CCOC(=O)CNC(=O)CN1C(=O)CCSc2ccccc21
6.6	-3	-42%[inhibitor]	21	-6%	1	CCOc1cc(CNCCc2ccc(S(N)(=O)=O)cc2)cc(Cl)c1OCc1ccccc1
-0.8&-2.8	-13&-11	?	-8&-6	-1%&5%	7&-1	CCOCCCn1c(=NC(C)=O)c(C(=O)OCC)cc2c(=O)n3ccccc3nc21
-2.5	-1	13%	-2	1%	-23	COC(=O)Cn1ncc2c3ccccc3n(C)c2c1=O

# In a second layout: results already given.
# Results follow in this order: D2 ag, D2 potentiator, gsp ag, CtBP-E1A inh, gsp antag, Six1-Eya2 blk
> Cc1nn(-c2ccccc2)cc1/C=N/O
  -3.0, -9, ?, -2, 10%, 3
> O=C(c1cc(COc2ccc(F)cc2Cl)on1)N1CCCC(OCc2cccnc2)C1 (stereo not drawn)
  -1.7, -8, -11%[15.4 µM], 0, ?, -1
> CCOC(=O)c1cc(=O)nc(N)s1
  -1.6, -6, -61%[inhibitor], 3, nt, 4

# Next part:
D2 ag	D2 potentiator	gsp ag	CtBP-E1A inh	gsp antag	Six1-Eya2 blk	SMILES
-10	-26	10%	-8	1%	0	CC(=O)NC1=CC(=C[N+](=O)[O-])C=C1O
1.4	-9	32µM*	-9	10%	-9	Cc1ccc(C)n1-c1ccc(-c2nnc3n2CCCCC3)s1
-3.2	14	22%	?	10%	-14	CCOc1ccc(-n2c(SCC(=O)NC(C)CC)nc3n[nH]c(C)c3c2=N)cc1 (stereo not drawn)
-0.6	-6	0%[15.4 µM]	0	nt	-6	Cc1ccc(-c2nc(CN3CCCCC3c3cccc(F)c3)c(C)o2)o1 (stereo not drawn)
6.2	1	4%[15.4 µM]	-6	8%	-20	Cc1cc(C(=O)Nc2ccc(N3CCCCC3)cc2)no1
-4.8	-16	-45%[inhibitor]	4	-3%	1	Cc1cc(C)cc(NC(=O)N2CCC(NC(=O)c3ccccc3C)CC2)c1
-1.4	-6	nt	2	nt	-1	CC1(C(=O)Nc2ccc3c(c2)OCO3)CCN1C(=O)CC1CC1 (stereo not drawn)
-0.7	-4	-5%[15.4 µM]	13	9%	5	CC(C)C(=O)N1CC(=O)Nc2ccc(F)cc2C1c1ccc(F)cc1 (stereo not drawn)
0.0	-5	-2%	-7	0%	4	CCOC(=O)C1CCCN(S(=O)(=O)c2cn(C)c(=O)n(C)c2=O)C1 (stereo not drawn)
-3.4	-5	-12%	7	6%	-4	CCC1CCCCN1CCCNC(=O)CC1Oc2ccc(C)cc2NC1=O (stereo not drawn)
-2.2	-1	23%	8	3%	4	Cc1ccc(-c2csc(NC(=O)CCCc3cccs3)n2)cc1
-2.9	-3	25%[15.4 µM]	3	-93%	0	O=C(Nc1nc2ccc([N+](=O)[O-])cc2s1)c1ccc(S(=O)(=O)N2CCCc3ccccc32)cc1
